CtBP-E1A inh = blocks the CtBP interaction with E1A; AlphaScreen GST-E1A/His-CtBP binding, 1536-well; hits give low values; control for the full effect not named in the record; activity change, % (no concentration beside the values); actives 0.49% (n = 340,000); AID 651724; in the data active means activity change below about -65%; inconclusive means about -30% to -65%; inactive means above about -30%; further: on the % scale 0 is the no-effect control and ±100 the full control effect; compound concentration not given in the record
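AlphaScreen with 125 nM GST-E1A and 125 nM His-CtBP (5X stocks) in Tris pH 8.0, 300 mM NaCl, BSA, Tween 20, TCEP. Compounds preincubated 2 h at 37 deg C, then glutathione donor/nickel acceptor beads added for 1 h at 37 deg C in dark.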
Sfp PPTase inh = Sfp phosphopantetheinyl transferase inhibition. Biochemical Sfp PPTase activity, qHTS. Potency, µM, without a hit: max response, negative = inhibition, actives largely listed as inhibitors. actives 3.5% (n = 310,000). AID 1490; active means well fitted inhibition curve with a large enough effect; inconclusive means small, poorly fitted or top-dose-only effect, or another doubt; inactive means no such curve, though single readings can be large or run the other way;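 further: the enzyme is Sfp with the accession as filed and its product quenches rhodamine fluorescence; potency means the concentration at half of the fitted maximal effect; 0% = enzyme reaction without inhibitor and -100% = no enzyme wells; top concentration of the series not given in the record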
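Fluorescence-quenching assay: 15 nM Sfp-PPTase preincubated 15 min at room temperature with compound, then 5 uM rhodamine-CoA and 12.5 uM BHQ-2-labelled YbbR peptide added. Fluorescence (ex 525/em 598 nm) read at start and after 30 min; difference gives rate.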
Six1-Eya2 blk = blocks human Six1 binding to Eya2; Q15475+O00167; AlphaScreen GST-Six1/His-Eya2 binding, biochemical; hits give low values; control for the full effect not named in the record; activity change, % (test concentration not listed); actives 0.56% (n = 360,000); AID 651725; in the data active = activity change below about -65%; inconclusive = about -30% to -65%; inactive = above about -30%; further: on the % scale 0 is the no-effect control and ±100 the full control effect; compound concentration not given in the record
Target sequence (O00167 whole entry, looked up): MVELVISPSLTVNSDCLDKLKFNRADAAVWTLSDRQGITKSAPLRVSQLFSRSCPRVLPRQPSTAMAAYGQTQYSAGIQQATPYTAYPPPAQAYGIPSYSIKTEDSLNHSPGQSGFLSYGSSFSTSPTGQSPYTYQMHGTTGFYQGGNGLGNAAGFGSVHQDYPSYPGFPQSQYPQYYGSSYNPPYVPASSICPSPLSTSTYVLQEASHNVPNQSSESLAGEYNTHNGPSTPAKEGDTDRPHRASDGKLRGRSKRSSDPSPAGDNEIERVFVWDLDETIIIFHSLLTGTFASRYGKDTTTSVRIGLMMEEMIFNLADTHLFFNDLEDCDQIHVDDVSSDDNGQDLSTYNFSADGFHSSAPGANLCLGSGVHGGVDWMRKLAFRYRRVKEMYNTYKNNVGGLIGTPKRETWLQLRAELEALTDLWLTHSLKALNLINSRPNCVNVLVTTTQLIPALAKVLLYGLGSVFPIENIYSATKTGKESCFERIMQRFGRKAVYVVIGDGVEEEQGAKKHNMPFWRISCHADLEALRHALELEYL
Target sequence (Q15475 whole entry, looked up): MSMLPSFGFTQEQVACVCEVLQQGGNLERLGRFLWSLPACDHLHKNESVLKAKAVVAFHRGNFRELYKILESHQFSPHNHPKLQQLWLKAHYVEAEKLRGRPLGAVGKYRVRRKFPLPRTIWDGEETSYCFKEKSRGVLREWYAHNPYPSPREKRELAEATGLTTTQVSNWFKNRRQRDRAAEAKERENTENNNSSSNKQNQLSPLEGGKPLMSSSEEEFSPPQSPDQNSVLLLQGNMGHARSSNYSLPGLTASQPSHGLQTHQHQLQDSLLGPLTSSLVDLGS
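Compounds are tested against tagged Six1 and Eya2 proteins bridged by glutathione donor and nickel acceptor beads; after a one-hour incubation at 37 °C without light, AlphaScreen emission is recorded.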
TRPV1 potentiator = human TRPV1 potentiation | Q8NER1 | TRPV1-expressing cells, Fluo-8 calcium influx, capsaicin EC20 potentiation; host cell line not named in the record; control for the full effect not named in the record | potentiation, % at 8.33 µM | actives 0.02% (n = 320,000); active means potentiation above 80%; inconclusive means 30% to 80%; inactive means below 30%; further: 0% is about no effect
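Cells expressing TRPV1 were dye-loaded with Fluo-8 and read kinetically: 10 s baseline, 3 min after compound (agonist portion), then 2 min after EC20 capsaicin (allosteric enhancer portion). Calcium-bound dye fluorescence at 480/520 nm.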
D2 PAM = potentiates the human D2 dopamine receptor allosterically; DiscoveRx D2 beta-arrestin cells, luminescence, 90 min; 100% = 57 uM dopamine signal; AID 624464; actives 0.23% (n = 360,000); P14416; potentiation, % (concentration not given with the values); active = potentiation of 50% or more; inconclusive = 30% to 50%; inactive = 30% or less;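 further: compound concentration not given in the record; tested on top of an EC20 dose of dopamine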
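PathHunter D2 cells, attached overnight at 37 deg C, received compound in DMSO plus dopamine at EC20 (50 nM final) for 90 min at 37 deg C. Beta-arrestin recruitment was read as luminescence after 1 h with detection reagent at ambient temperature.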
PINK1 modulator = changes PINK1 expression. actives 0.2% (n = 410,000). PINK1 immunofluorescence, high-content cytometry, 24 h. Potency, µM (top dose mostly 76.6 µM), for the others: top-dose activation (PINK1 increase), hits mostly activators; active = well fitted activation curve with a large enough effect; inconclusive = small, poorly fitted or top-dose-only effect; inactive = flat fitted curve, though single readings scatter; cell line not stated here;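 further: potency means the concentration at half of the fitted maximal effect; % of control where 0% means no effect; nearly all actives have a fitted effect of over 65% in size; a mitochondrial uncoupler was the plate control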
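Fluorescence from anti-PINK1 antibody, together with nuclear and cell stains, was scanned on a laser-scanning cytometer. Before staining, stable-line cells were incubated 24 hours with compounds at 5 concentrations; primary antibody 12 h at 10 degrees C.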
D2 ag = human D2 receptor agonism in beta-arrestin assay; P14416; DiscoveRx PathHunter D2 beta-arrestin, luminescence, 90 min; 100% = 57 uM dopamine signal; activation, % (test concentration not listed); actives 0.084% (n = 360,000); AID 624465; in the data active = activation above about 40%; inconclusive = about 15% to 40%; inactive = below about 15%; further: compound concentration not given in the record; the text of the record calls up to 30% inactive
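Agonist mode: compounds alone added to overnight-plated D2 PathHunter cells for 90 min at 37 C, with 57 uM final dopamine (EC100) defining full response. Beta-arrestin recruitment detected by chemiluminescent reagent, read after 1 h at ambient temperature.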
The depositor's hits bear a star; & = joins results of further samples; [ ] = dose if it differs, or a comment.

What do the screens show for `O=C(Nc1ccccc1)c1cc(C2CCCCN2C(=O)OCCF)on1` (stereo not drawn)?
CtBP-E1A inh: 0; Six1-Eya2 blk: 5; D2 PAM: -9; PINK1 modulator: 2.7%; D2 ag: -3.7

What do the screens show for `C=CCN(CC=C)C(=O)c1c(OC)cccc1OC`?
CtBP-E1A inh: 7; Sfp PPTase inh: 0%; Six1-Eya2 blk: 0; TRPV1 potentiator: 5; D2 PAM: -22; PINK1 modulator: -1.2%; D2 ag: -1.9

What do the screens show for `O=[N+]([O-])c1cnn(-c2nc(-c3ccccc3)cc(C(F)(F)F)n2)c1`?
CtBP-E1A inh: -5; Sfp PPTase inh: 22%; Six1-Eya2 blk: 6; TRPV1 potentiator: -18; D2 PAM: -2; PINK1 modulator: 2.6%; D2 ag: -3.5

Results for Cc1ccc(C(=O)NS(=O)(=O)c2ccccc2)cc1 ?
CtBP-E1A inh: 7; Sfp PPTase inh: 22%; Six1-Eya2 blk: 27; TRPV1 potentiator: 8; D2 PAM: 1; PINK1 modulator: -0.3%; D2 ag: -1.2

What do the screens show for `O=S1(=O)N=C(N(CCO)/N=C/c2ccncc2)c2ccccc21`?
CtBP-E1A inh: -78*; Sfp PPTase inh: 12%; Six1-Eya2 blk: -80*; TRPV1 potentiator: -4; D2 PAM: 1; PINK1 modulator: -0.8%; D2 ag: -0.4

How did O=C(CCN1CCN(c2ccccc2)CC1)N/N=C/c1ccc([N+](=O)[O-])o1 do in these assays?
CtBP-E1A inh: -15; Sfp PPTase inh: 3%; Six1-Eya2 blk: -15; TRPV1 potentiator: 8; D2 PAM: 6; PINK1 modulator: 15%; D2 ag: inconclusive

Results for CC1CCCN(C(=O)C2CCCN(S(=O)(=O)c3cccc4nsnc34)C2)C1 (stereo not drawn) ?
CtBP-E1A inh: 3; Sfp PPTase inh: 9%; Six1-Eya2 blk: 3; TRPV1 potentiator: -7; D2 PAM: -1; PINK1 modulator: 1.6%[38.3 µM]; D2 ag: 1.0

How did CN(CCc1ccccc1)Cc1nc(-c2cnccn2)no1 do in these assays?
CtBP-E1A inh: 3; Sfp PPTase inh: 19%; Six1-Eya2 blk: 12; TRPV1 potentiator: 1; D2 PAM: -5; PINK1 modulator: 2.1%; D2 ag: -4.1

How did COc1ccccc1CNC(=O)COC(=O)c1ccc([N+](=O)[O-])o1 do in these assays?
CtBP-E1A inh: -17; Six1-Eya2 blk: 4; TRPV1 potentiator: 12; D2 PAM: 2; PINK1 modulator: -0.4%; D2 ag: 10

Results for Cn1c(=O)n(Cc2ccccc2)c(=O)c2c1nc1n2CCCN1Cc1ccccc1 ?
CtBP-E1A inh: 2; Sfp PPTase inh: -14%; Six1-Eya2 blk: -5; TRPV1 potentiator: 9; D2 PAM: 6; PINK1 modulator: 6.5%; D2 ag: -3.4

Results for CCCCN(C(=O)Oc1ccccc1)C1CCS(=O)(=O)C1 (stereo not drawn) ?
CtBP-E1A inh: 3; Sfp PPTase inh: 0%; Six1-Eya2 blk: 2; TRPV1 potentiator: -8; D2 PAM: -3; PINK1 modulator: 3.7%; D2 ag: 0.4

Results for COc1ccc(-n2nc3c(N4CCC(C(=O)NCC(C)c5ccccc5)CC4)nnc(C)c3c2C)cc1 (stereo not drawn) ?
CtBP-E1A inh: -5; Sfp PPTase inh: 13%; Six1-Eya2 blk: -1; TRPV1 potentiator: -2; D2 PAM: -25; PINK1 modulator: inconclusive; D2 ag: -0.5

Two entries picked at random from the list so far, as already listed:
What do the screens show for `O=C(Nc1ccccc1)c1cc(C2CCCCN2C(=O)OCCF)on1` (stereo not drawn)?
CtBP-E1A inh: 0; Six1-Eya2 blk: 5; D2 PAM: -9; PINK1 modulator: 2.7%; D2 ag: -3.7

What do the screens show for `O=S1(=O)N=C(N(CCO)/N=C/c2ccncc2)c2ccccc21`?
CtBP-E1A inh: -78*; Sfp PPTase inh: 12%; Six1-Eya2 blk: -80*; TRPV1 potentiator: -4; D2 PAM: 1; PINK1 modulator: -0.8%; D2 ag: -0.4

(list continues)
What do the screens show for `O=C(Nc1ccc(Cl)cc1)c1ccsn1`?
CtBP-E1A inh: 3; Sfp PPTase inh: 6%; Six1-Eya2 blk: -6; TRPV1 potentiator: -8; D2 PAM: -5; PINK1 modulator: 2.3%; D2 ag: -2.9

Results for O=C(CCNS(=O)(=O)c1ccccc1C(F)(F)F)NCC(c1ccco1)N1CCCCC1 (stereo not drawn) ?
CtBP-E1A inh: 2; Six1-Eya2 blk: 0; TRPV1 potentiator: -11; D2 PAM: -9; PINK1 modulator: 2.7%; D2 ag: -5.5

What do the screens show for `Cc1ccsc1/C=C(\C#N)C(=O)NCc1ccco1`?
CtBP-E1A inh: 4; Sfp PPTase inh: 8%; Six1-Eya2 blk: 2; TRPV1 potentiator: -8; D2 PAM: -14; PINK1 modulator: 11%; D2 ag: -4.2

How did O=C(CNC(=S)N(Cc1ccccc1)Cc1cccnc1)NC1CCCC1 do in these assays?
CtBP-E1A inh: 3; Sfp PPTase inh: -2%; Six1-Eya2 blk: 10; TRPV1 potentiator: 9; D2 PAM: -8; PINK1 modulator: -2.5%; D2 ag: -3.7

How did O=C(CSc1nnc(NC(=O)C2CCCCC2)s1)NCc1ccco1 do in these assays?
CtBP-E1A inh: 0; Sfp PPTase inh: 5%; Six1-Eya2 blk: 2; TRPV1 potentiator: 25; D2 PAM: 2; PINK1 modulator: 7.4%; D2 ag: 1.7

What do the screens show for `CC(C)C(=O)NC(=S)Nc1ccc(CN2CCOCC2)cc1`?
CtBP-E1A inh: 0; Sfp PPTase inh: 8%; Six1-Eya2 blk: 5; TRPV1 potentiator: 0; D2 PAM: -7; PINK1 modulator: 2.1%; D2 ag: -2.5

What do the screens show for `C=CCn1c(C)cc(C(=O)CSc2nnc3n(CCC)c(=O)c4ccccc4n23)c1C`?
CtBP-E1A inh: 2; Six1-Eya2 blk: 9; D2 PAM: 0; PINK1 modulator: 0.8%; D2 ag: -2.9

Results for Cc1cccc(Sc2nc(-c3ccccc3)ncc2C(=O)O)c1 ?
CtBP-E1A inh: 4; Sfp PPTase inh: 12%; Six1-Eya2 blk: -1; TRPV1 potentiator: 5; D2 PAM: -2; PINK1 modulator: -1.6%; D2 ag: -1.2

Results for Cn1c(-c2ccc(F)cc2)cnc1SCC(=O)NCc1ccco1 ?
CtBP-E1A inh: -3; Sfp PPTase inh: inconclusive; Six1-Eya2 blk: -6; TRPV1 potentiator: 22; D2 PAM: -17; PINK1 modulator: -0.6%; D2 ag: -3.3

Results for OCCn1c(-c2ccc(F)cc2)csc1=Nc1ccccc1 ?
CtBP-E1A inh: -9; Sfp PPTase inh: -8%; Six1-Eya2 blk: -26; TRPV1 potentiator: 8; D2 PAM: -22; PINK1 modulator: 4.7%; D2 ag: -0.6

How did CCc1cccc(C)c1NC(=S)NCc1ccccc1 do in these assays?
CtBP-E1A inh: -24; Sfp PPTase inh: 19%; Six1-Eya2 blk: 6; TRPV1 potentiator: -11; D2 PAM: -9; PINK1 modulator: -1.5%; D2 ag: -7.8

Results for COC(=O)c1ccc(C(=O)OC)c(NC(=O)COc2ccccc2OC)c1 ?
CtBP-E1A inh: 5; Sfp PPTase inh: -24%; Six1-Eya2 blk: 3; TRPV1 potentiator: -10; D2 PAM: -15; D2 ag: -1.6

How did CCn1c(NCCc2ccc(OC)c(OC)c2)nc2c1c(=O)n(C)c(=O)n2C do in these assays?
CtBP-E1A inh: -14; Sfp PPTase inh: 9%; Six1-Eya2 blk: 2; TRPV1 potentiator: 2; D2 PAM: -1; PINK1 modulator: 2.8%; D2 ag: -2.7

How did COc1ccc(C(=O)N/N=C/C2CC=CCC2)cc1OC (stereo not drawn) do in these assays?
CtBP-E1A inh: -4; Sfp PPTase inh: -10%; Six1-Eya2 blk: -1; TRPV1 potentiator: 17; D2 PAM: -17; PINK1 modulator: 1.3%; D2 ag: 0.5

What do the screens show for `COc1ccc2sc(C)cc(=O)c2c1`?
CtBP-E1A inh: -5; Six1-Eya2 blk: -4; D2 PAM: -11; PINK1 modulator: 1.8%; D2 ag: -5.9

How did O=C(CSc1nnc(Cc2ccccc2)o1)Nc1cccc(F)c1 do in these assays?
CtBP-E1A inh: 5; Sfp PPTase inh: 26%; Six1-Eya2 blk: -4; TRPV1 potentiator: -11; D2 PAM: -14; PINK1 modulator: 2.8%; D2 ag: -5.2

How did O=c1c2sc3nc(N4CCOCC4)c4c(c3c2ncn1CCc1ccccc1)CCCC4 do in these assays?
CtBP-E1A inh: 3; Sfp PPTase inh: -1%; Six1-Eya2 blk: 9; TRPV1 potentiator: 10; D2 PAM: -21; PINK1 modulator: -1.2%; D2 ag: -3.6

How did CCC/C(O)=C1\C(=O)CC(C)(C)CC1=NCCO do in these assays?
CtBP-E1A inh: 0; Sfp PPTase inh: 1%; Six1-Eya2 blk: -3; TRPV1 potentiator: -6; D2 PAM: 23; PINK1 modulator: 3.1%; D2 ag: -0.4

Results for Oc1ccc(N=Nc2ccc(Br)cc2)c(O)c1 ?
Sfp PPTase inh: -8%; Six1-Eya2 blk: -14; TRPV1 potentiator: -3; D2 PAM: inconclusive; PINK1 modulator: 11%; D2 ag: 1.2

What do the screens show for `O=C(CCS(=O)(=O)c1cc2c(cc1Cl)NC(=O)CO2)NCCc1ccccc1`?
CtBP-E1A inh: 4; Sfp PPTase inh: 25%; Six1-Eya2 blk: 1; TRPV1 potentiator: -10; D2 PAM: 0; PINK1 modulator: 1.9%&-1.1%; D2 ag: -7.0

Results for COc1ccc(-c2cn[nH]c2-c2ccc(OCC(=O)NN)cc2O)cc1 ?
CtBP-E1A inh: -1; Sfp PPTase inh: 19%; Six1-Eya2 blk: -6; TRPV1 potentiator: -6; D2 PAM: -1; PINK1 modulator: 0.5%; D2 ag: -6.8

How did O=[N+]([O-])c1cc(-c2nnc(C34CC5CC(CC(C5)C3)C4)o2)cc([N+](=O)[O-])c1 do in these assays?
CtBP-E1A inh: -23; Sfp PPTase inh: 4%; Six1-Eya2 blk: -9; TRPV1 potentiator: 2; D2 PAM: 145*; PINK1 modulator: 12%; D2 ag: inconclusive

How did O=C(O)c1cn(CCOc2ccccc2Cl)c2ccccc12 do in these assays?
CtBP-E1A inh: 3; Sfp PPTase inh: 2%; Six1-Eya2 blk: -1; TRPV1 potentiator: inconclusive; D2 PAM: -4; PINK1 modulator: 3.9%; D2 ag: 0.0

Results for O=C(Nc1ccc(N2CCN(C(=O)c3ccccc3)CC2)c(Cl)c1)c1ccco1 ?
CtBP-E1A inh: 0; Sfp PPTase inh: 2%; Six1-Eya2 blk: -5; TRPV1 potentiator: -15; D2 PAM: -9; PINK1 modulator: 0.9%; D2 ag: 1.1

Bioassay records deposited in PubChem by National Center for Advancing Translational Sciences (NCATS).
